# Bioassay records as filed in PubChem BioAssay.
# Ab BasE inh = blocks the Acinetobacter baumannii siderophore enzyme BasE | purified BasE, fluorescence polarization binding displacement | AID 485350 | hit rate 0.1% among 84,000 | inhibition, % (no concentration beside the values);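 active = both replicates above 25% with normal brightness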;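 also: 0% = negative plate control signal and 100% = positive plate control signal; stock transfer was 100 nL into about 30 µL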
# LANA-nucl inh = inhibitors of KSHV LANA binding to nucleosomes | hit rate 0.3% among 51,000 | FITC-LANA1-23 / chicken nucleosome fluorescence polarization; active compounds read low | AID 720717 | z-score (concentration not given with the values);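 active = both repeat wells score below -2 in polarization z-score versus plate sample wells, excluding overly bright wells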;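 also: 100 nL library stock added to about 30 µL; numbers are from one replicate; some results filed as inactive read as strong as hits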
#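 Test system: purified chicken nucleosomes with FITC-labelled LANA N-terminal peptide (1-23); Input: 240 nM purified chicken nucleosomes (480 nM peptide binding sites), final; Medium: TEN-BT buffer, pH 7.5; Timing: 10–45 min, room temperature; Technique: fluorescence polarization, 480 nm excitation, 535 nm parallel and perpendicular emission; Replication: duplicates.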
# * = called active by the depositor; nt = no result given. This is a subset; count on the stated rates, not on these rows.
SMILES,Ab BasE inh,LANA-nucl inh
Cn1nc(CC(=O)Nc2cccc3ncccc23)c2ccccc2c1=O,-0.6,-0.33
Nc1nc2c(C(=O)N3CCOCC3)nnn2c2ccccc12,1.6,nt
O=C(NNc1nccc(C(F)(F)F)n1)Nc1cccc(Cl)c1,3.0,-0.23
CSc1nc(C)c2cc(C)ccc2n1,3.9,-0.038
O=C(CCc1n[nH]c(=O)[nH]c1=O)Nc1cccc(Br)c1,-3.4,1.5
CC(C)C(C(=O)O)N1C(=O)c2ccc(C(=O)O)cc2C1=O (stereo not given),0.5,0.52
O=C(O)CSC1CC(=O)N(c2cccc(Cl)c2)C1=O (stereo not given),0.8,-0.75
Cc1cccc(NC(=O)C(Cc2ccccc2)NS(=O)(=O)c2ccc3c(c2)c(=O)n(C)c(=O)n3C)n1 (stereo not given),12,0.068
CCOc1ccccc1NC(=O)NC1CC2CCCC(C1)N2Cc1nnnn1CCc1ccccc1 (stereo not given),-1.1,0.11
CCOC(=O)N1CCC(NC(=O)c2ccc3c(c2)NC(=O)C2CCCN32)CC1 (stereo not given),-3.4,-0.41
CCOC(=O)c1ccc(N=c2sc(C(=O)OC)cc(=O)n2C2CC2)cc1,1.6,-0.53
CCCCCCC1C(C#N)=C(N)SC(N)=C1C#N,-28,nt

# A second format for some results above.
# Values in the order – Ab BasE inh, LANA-nucl inh
O=C(NNc1nccc(C(F)(F)F)n1)Nc1cccc(Cl)c1
    3.0, -0.23
CCOc1ccccc1NC(=O)NC1CC2CCCC(C1)N2Cc1nnnn1CCc1ccccc1 (stereo not given)
    -1.1, 0.11
CC(C)C(C(=O)O)N1C(=O)c2ccc(C(=O)O)cc2C1=O (stereo not given)
    0.5, 0.52
CCCCCCC1C(C#N)=C(N)SC(N)=C1C#N
    -28, nt

# Later entries
SMILES,Ab BasE inh,LANA-nucl inh
O=C1c2cccc3cccc(c23)C12OCCS2 (stereo not given),-2.2,3.2
Cc1ccccc1CN1CCC(CNc2nc(-c3ccccc3)no2)CC1,2.1,0.42
Oc1nc(-c2cccc(C(F)(F)F)c2)n2ccncc12,-4.3,nt
CC(N=C1NS(=O)(=O)c2ccccc21)C(=O)OCc1nnc(-c2ccc(Cl)cc2)o1 (stereo not given),1.6,nt
CCN(CC)C(=O)Cn1cc(SCC(=O)Nc2ccccc2)c2ccccc21,1.3,-1.3
Clc1cnc(-n2cccc2)nc1,nt,-0.74
O=C(c1cc(-c2ccccc2)n[nH]1)N1CCn2c1nc1ccccc12,-0.4,-0.77
CN(C(=O)c1ccc(S(C)(=O)=O)cc1)c1c(N)n(Cc2ccccc2)c(=O)[nH]c1=O,1.4,nt
CC(C)N(C(=O)NC(=O)Nc1ccccn1)S(C)(=O)=O,-0.6,nt
Cc1nn(CCCC(=O)NCCC2=CCCCC2)c(=O)c2nccn12,0.1,-1.5
CN1CCC(N(C)C(=O)Nc2ccc(Cl)c(Cl)c2)CC1,-2.4,2.5
O=C1c2ccccc2S(=O)(=O)c2cc(C(=O)N(Cc3ccco3)Cc3cccs3)ccc21,2.1,nt

# Among those listed so far, these contain a Cl atom.
SMILES,Ab BasE inh,LANA-nucl inh
O=C(NNc1nccc(C(F)(F)F)n1)Nc1cccc(Cl)c1,3.0,-0.23
O=C(O)CSC1CC(=O)N(c2cccc(Cl)c2)C1=O (stereo not given),0.8,-0.75
CC(N=C1NS(=O)(=O)c2ccccc21)C(=O)OCc1nnc(-c2ccc(Cl)cc2)o1 (stereo not given),1.6,nt
Clc1cnc(-n2cccc2)nc1,nt,-0.74
CN1CCC(N(C)C(=O)Nc2ccc(Cl)c(Cl)c2)CC1,-2.4,2.5

# (further entries)
SMILES,Ab BasE inh,LANA-nucl inh
CC(=O)N1CCN(C(=O)c2ccc(C(=O)c3ccccc3)cc2)CC1,-0.8,nt
Cc1c(C#N)c(NC(=O)COc2ccc(F)cc2Br)n(Cc2ccco2)c1C,0.2,nt
CC(=O)Nc1ccccc1OCC(=O)c1cc(C)n(CC2CCCO2)c1C (stereo not given),-3.8,nt
COc1ccc(S(=O)(=O)N(CC(N)=O)c2ccc(C)cc2)cc1,-0.4,nt
CC(C(=O)O)c1c(C(=O)O)[nH]c2ccccc12 (stereo not given),2.4,-0.53
CCC(CC)C(=O)Nc1nc2ccc(OC)cc2s1,-1.8,-0.53
CCOc1ccc(-c2nnc(SC(F)F)n2CCC(=O)O)cc1,-1.0,nt
COc1ccccc1CNC(=O)CNC(=O)c1cccc(C)c1,0.1,nt
O=C(CSc1nnnn1C1CCCC1)Nc1ccc(S(=O)(=O)N2CCCCC2)cc1,1.4,nt
CCCNC(=O)CSc1c(-c2ccccc2)c2cc(Cl)ccc2[nH]c1=O,-1.2,nt
N#Cc1ccccc1NC(=O)C1CCC1,-1.7,0.33
OC1CCN(C(c2cccc(C(F)(F)F)c2)c2nnnn2Cc2ccc(F)cc2)CC1 (stereo not given),-2.1,0.3
CC/C(=N\NC(=O)c1cc(-c2ccco2)nc2ccccc12)c1ccc(F)cc1,1.8,nt
CCCCn1c(=O)c2oc3ccccc3c2n(Cc2cccc(Cl)c2)c1=O,-0.2,0.41
CCC1CCCCN1C(=O)Cn1c(=O)n(CC2CCC(C(=O)NC3CCCC3)CC2)c(=O)c2ccccc21 (stereo not given),-3.1,1.3
O=C(Cc1csc2nc(-c3ccc(Cl)cc3)cn12)N1CCN(c2ccccc2)CC1,1.8,-0.81
CCn1c(=O)c(=O)[nH]c2cc(C(=O)NCc3ccc(F)cc3)ccc21,-3.5,nt
OC(CON=C1c2ccccc2-c2ccccc21)CN1CCN(c2ccccn2)CC1 (stereo not given),-2.1,1.4
COc1ccc(-c2nc(CSCC(=O)NCCN3CCN(c4cccc(Cl)c4)CC3)c(C)o2)cc1OC,-1.4,0.87
Cc1ccc(C(O)C(=O)c2cccs2)o1 (stereo not given),0.3,-2.3
COc1ccc(/C=N/OCC(=O)N2CCN(C)CC2)cc1,2.2,nt
CC1=Nc2ccccc2N=C(NC(=O)CN2CCN(c3ccccc3)CC2)C1c1ccccc1 (stereo not given),-0.2,0.0005
O=C1NC(c2ccccc2)/C(=C(\O)c2ccccc2)C1=O (stereo not given),0.5,0.031
O=C(O)CNC(=O)c1ccc(N2CCCC2=O)cc1,-0.7,nt
CCOC(=O)C1=C(CSc2nnnn2-c2ccccc2OCC)NC(=O)NC1c1ccccc1 (stereo not given),0.5,nt
CCOC(=O)/C(C#N)=C\c1cccn1C,0.4,0.42
CC[C@H](c1ccc(O)cc1)[C@@H](CC)c1ccc(O)cc1,nt,0.51
N#C/C(=C\c1ccc(Sc2nc3ccccc3[nH]2)o1)c1ccccc1,-1.5,0.42
Cc1ccc(CN(C)c2nc(-c3cccnc3)nc3sc4c(c23)CCCC4)o1,0.4,nt
CC(C)(CNC(=O)c1ccccc1Sc1ccccc1C#N)N1CCOCC1,1.1,nt
O=c1[nH]c2cc(Cl)ccc2c(-c2ccccc2)c1SC1=NCCS1,-1.5,nt
O=C(Nc1ccc(-c2cn3ccsc3n2)cc1)c1ccc2c(=O)n3c(nc2c1)CCCCC3,3.1,nt
Cc1c(C(=O)NC(C)CCc2ccccc2)oc2c1C(=O)CCC2 (stereo not given),0.5,-0.43
CSc1cccc(NC(=O)CSc2nc3ccncc3[nH]2)c1,-1.9,-1.6
COc1ccccc1CCNC(=O)c1nccnc1C(=O)O,1.9,0.16
CSc1ccccc1NC(=O)CN(C)CC(=O)N1CCN(C(=O)c2ccco2)CC1,-0.6,nt
COc1cccc2ccc(Cl)nc12,1.5,nt
CC1(C)CC(=O)C/C(=N\Nc2n[nH]c(=O)[nH]c2=O)C1,-0.6,nt
Cc1ccc(N2CCN(C(=S)c3ccc(N(C)C)cc3)CC2)cc1,1.4,nt
Cc1[nH]c2ccc(C(=O)NCC3CCCO3)cc2c1C (stereo not given),-3.8,nt
COc1ccc(S(=O)(=O)N2CCC(C(=O)NC(c3nc4ccccc4[nH]3)C(C)C)CC2)cc1 (stereo not given),0.1,nt
Cc1onc(-c2c(Cl)cccc2Cl)c1C(=O)N=CN(C)C,nt,-0.056
NS(=O)(=O)c1ccc(CCNC(=O)C2(S(=O)(=O)c3ccc(Cl)cc3)CC2)cc1,2.2,0.37
O=C(Cn1c(=O)cnc2ccccc21)NC(=O)NC1CCCCC1,-4.9,nt
O=C(CSc1nc2scc(-c3ccco3)c2c(=O)n1-c1ccccc1)Nc1ccccc1,2.0,nt
O=S(=O)(/C=C/c1ccccc1)N1C=Cc2ccccc2C1c1c[nH]c2ccccc12 (stereo not given),-0.1,nt
COC(=O)c1ccc2c(=O)[nH]c(CSc3nnc(N)s3)nc2c1,-2.0,nt
CNC(=S)N/N=C(\C)c1cccc(C(F)(F)F)c1,2.9,nt
O=C(/C=C/c1cccs1)NCCN1C(=O)S/C(=C\c2cccs2)C1=O,1.5,nt
O=C(Sc1ccc(Cl)cc1)c1ccno1,0.3,0.52
COc1ccc(CNC(=O)CCCOc2ccccc2)cc1,0.4,nt
CCn1c(O)c(N=Nc2c(C)n(C)n(-c3ccccc3)c2=O)sc1=S,0.5,nt
COC(=O)c1nnn(-c2nonc2N)c1CSc1ccccn1,3.1,0.23
O=C(Nc1ccccc1)Nc1ccc(Oc2ncnc3cc(Cl)ccc23)nc1,3.1,nt
Cn1c(=O)c2cc(Br)ccc2n(C)c1=O,0.0,1.6
COc1ccc(NC(=O)CSc2nnc(N)n2CC(=O)Nc2ccc(OC)cc2)cc1,2.6,-0.83
CCCCC1(C(=O)OC)NC(c2ccc(O)cc2)C2C(=O)N(c3ccccc3)C(=O)C21 (stereo not given),-1.0,-1.5
C=CCN1C(=O)C(CC(=O)Nc2ccc(C)cc2)SC1=Nc1cccc(O)c1 (stereo not given),-0.5,0.52
CCCCC/C=C\C/C=C\CCCCCCCC(=O)O[C@@H](CO)COC(=O)CCCCCCCCCCCCCCCCC,-2.5,-0.1
CCOC(=O)c1ccc2c(c1)[C@@H]1C=CC[C@@H]1[C@H](c1cccnc1)N2,-0.1,0.15
# Going on with the list:
SMILES,Ab BasE inh,LANA-nucl inh
COC(=O)c1cc(OC)c(OC)cc1NC(=O)c1ccc2c(=O)n3c(nc2c1)CCCCC3,-4.6,nt
CCCCN1C(=O)C2(/C(=C(/O)c3ccc(OCC)cc3)C(=O)C(=O)N2CCOC)c2ccccc21 (stereo not given),-0.6,2
O=C(c1c[nH]c(-c2nc3ccccc3[nH]2)c1)c1ccccc1O,10,nt
COc1ccccc1NC(=O)NC(C)(C)CC(C)(C)C,-0.1,0.7
CC(C)CC(NC(N)=O)C(=O)NCc1ccccc1Cl (stereo not given),0.2,nt
O=C(CCS(=O)(=O)Cc1ccccc1)Nc1cccnc1,-2.9,1.4
O=C(NCCc1ccccc1)c1cccs1,-3.6,0.053
Nc1nc2c(o1)oc1nc(-c3ccccc3)cc(-c3ccccc3)c12,-5.8,0.11
O=C(CSc1nnc(COc2ccccc2)o1)NCc1ccccc1,2.0,nt
c1ccc(Cn2c(CSc3nnnn3C3CCCCC3)nc3ccccc32)cc1,23,-0.68
COc1ccc(Br)cc1CN(C)C(C)C(=O)N1CC(C)OC(C)C1 (stereo not given),1.4,nt
Cc1[nH]c2ccccc2c(=O)c1CN1CCCCCC1,0.8,-0.092
CN1C(=O)NC(=O)C1(C)C,2.5,nt
CCOC(Cn1ccc(=O)[nH]c1=O)OCC,-0.7,0.54
COC(=O)CSc1nnc(Cc2cc(=O)[nH]c(=O)[nH]2)n1-c1ccc(OC)cc1,0.6,-0.45
O=C(Cc1ccccc1)Nc1ccc(I)cn1,0.0,-0.53
CCNC(=O)c1cc(Br)ccc1Cl,-0.1,-0.78
N#Cc1cccc(CSc2nnc(Nc3ccccc3)n2-c2ccccc2)c1,-1.6,0.93
c1ccc(N2CCN(c3ccnc(N4CCN(c5ccccc5)CC4)n3)CC2)cc1,0.5,nt
CCOC(=O)C(Sc1nnc(-c2cc(OC)cc(OC)c2)o1)c1ccccc1 (stereo not given),1.3,nt
COc1ccc(OCc2nc(C#N)c(NCCc3ccccc3)o2)cc1,1.0,-0.29
O=C(NC(=S)Nc1ncn[nH]1)c1ccccc1,-1.4,-0.32
CCCC12CCC(O)(CC1)C/C2=N\NS(=O)(=O)c1ccc(C)cc1,-5.7,-0.26
Cc1ccc(NC(=O)CSC2=NN3CCS(=O)(=O)N=C3S2)c(C)c1,-2.7,nt

# An excerpt from above in order of SMILES length, rising:
SMILES,Ab BasE inh,LANA-nucl inh
CN1C(=O)NC(=O)C1(C)C,2.5,nt
CCNC(=O)c1cc(Br)ccc1Cl,-0.1,-0.78
CCCC12CCC(O)(CC1)C/C2=N\NS(=O)(=O)c1ccc(C)cc1,-5.7,-0.26
CCOC(=O)C(Sc1nnc(-c2cc(OC)cc(OC)c2)o1)c1ccccc1 (stereo not given),1.3,nt
COC(=O)CSc1nnc(Cc2cc(=O)[nH]c(=O)[nH]2)n1-c1ccc(OC)cc1,0.6,-0.45

# Next records follow:
SMILES,Ab BasE inh,LANA-nucl inh
COC(=O)CSC1=C(C#N)C(=O)NC(c2ccc(O)c(OC)c2)S1 (stereo not given),6.8,-1.7
CC(=O)Nc1ccc2c(c1)nc(CN1CCCCC1)n2C,-1.9,1.4
Cc1ccc(Nc2c(F)c(F)c(F)c(F)c2C(=O)O)c(C)c1,3.7,-0.055
CCN(c1ccccc1)S(=O)(=O)c1ccc(N(C)Cc2cccs2)nc1,0.1,nt
O=C1C=C(c2ccccc2)OC(c2ccccc2)O1 (stereo not given),3.9,0.51
C#CCO/N=C1/CCCc2nonc21,-0.2,-0.69
CCn1c(C)[n+](CC)c2ccc(S(=O)(=O)N3CCCCC3)cc21,2.7,0.16
Oc1ccc(N=Cc2ccccc2O)cc1,0.2,0.06
CC1(C)Cc2c(c(-c3ccco3)nc3sc4c(NC5CCCCC5)ncnc4c23)CO1,0.7,0.28
CCc1nnc(NC(=O)CSC2=NCCS2)s1,1.9,0.18
